# Ecoli rRNA inh – inhibits bacterial ribosomal RNA function over humanized ribosomes; AID 720706; 350,000 tested, 1.6% active; GFP signal change (wild-type ribosome), % (concentration not given with the values); E. coli WT GFP vs humanized-ribosome RFP mutants, fluorescence, 24 h; active compounds read low; DMSO median 0, no signal -100;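 active = significant combined selectivity score with lowered wild-type GFP, culture density cut under 30%, mutant RFP and density less affected; inactive = any of these conditions unmet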; note: one replicate is shown; some compounds called inactive have numbers as strong as hits
# Ecoli rRNA inh OD600 – second read-out of Ecoli rRNA inh, no call of its own (marks repeat the call); OD600 change, %; measured here: OD600 growth;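 optical density of the mix in the first replicate; 0 = DMSO median and -100 = no signal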
# Ecoli rRNA inh RFP – second read-out of Ecoli rRNA inh, no call of its own (marks repeat the call); RFP signal change, %; measured here: RFP humanized mutant strains;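 first replicate; 0 = DMSO median and -100 = no signal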
# Numbers without * were called inactive; & = joins results of further samples. This is a subset, so the mix of outcomes need not match the whole.
SMILES	Ecoli rRNA inh	Ecoli rRNA inh OD600	Ecoli rRNA inh RFP
COc1ccc2c3c(n(C)c2c1)[C@@H](CO)N(C(=O)c1ccccn1)CC31CCN(C(=O)Cc2ccccc2)CC1	-1	-1	2.5
C[C@@H]1CN([C@H](C)CO)C(=O)Cc2cc(NC(=O)CCCCCC(=O)Nc3ccccc3N)ccc2O[C@@H]1CN(C)Cc1ccc(Cl)c(Cl)c1	-7	-10	3.5
O=C(C[C@H]1C[C@H]2c3cc(NS(=O)(=O)c4ccc(F)cc4)ccc3O[C@H]2[C@@H](CO)O1)NCC(F)(F)F	-3	-1	-2.8
COc1ccc(NC(=O)N(C)C[C@H]2Oc3c(NS(=O)(=O)c4c(C)noc4C)cccc3C(=O)N([C@@H](C)CO)C[C@H]2C)cc1	3	6	0.1
CO[C@@H](CN(C)S(=O)(=O)c1cccc(Cl)c1)[C@H](C)CN([C@H](C)CO)S(=O)(=O)c1cccc(Cl)c1	-2	-23	11
CC(=O)N1[C@@H]2c3ccc(C4=CCCCC4)c(=O)n3C[C@H]1[C@H](CO)[C@H]2C(=O)NC1CCC1	3	8	-3.3
C/C=C/c1ccc2c(c1)O[C@H](CN(C)CC1CCOCC1)[C@H](C)CN([C@H](C)CO)S2(=O)=O	2	4	0.0
O=C(C1CC1)N1CC(=O)N2[C@H](CO)[C@@H](c3ccc(C#Cc4cccc(F)c4)cc3)[C@@H]2C1	-60	-79	-20
CC(=O)N(C)C[C@@H]1[C@@H](c2ccc(-c3cccc(C#N)c3)cc2)[C@H](CO)N1C(C)=O	2	9	0.9
Cc1noc(C)c1NC(=O)Nc1ccc2c(c1)CC(=O)N([C@H](C)CO)C[C@H](C)[C@@H](CN(C)Cc1ccc(C(=O)O)cc1)O2	3	4	-1.8
C[C@H]1CCCCO[C@@H](CN(C)C(=O)NC2CCCCC2)[C@@H](C)CN([C@@H](C)CO)C(=O)c2cc(NS(=O)(=O)c3ccc(F)cc3)ccc2O1	1	8	2.5
O=C(Nc1cccc(C(F)(F)F)c1)c1csc([C@H]2C[C@H](O)[C@@H](CO)O2)n1	-10	-9	-3.9
C[C@H](CO)N1C[C@H](C)[C@H](CN(C)C(=O)c2ccccc2)OCc2ccccc2-c2ccccc2C1=O	0	-3	-1.8
CCN(CC)C(=O)c1cccc(-c2csc(C(O)c3ccccc3)n2)c1 (stereo unspecified)	-6	-12	1.6
Nc1nc2c(ncn2[C@@H]2O[C@H](CNCc3cnc(N4CCOCC4)s3)[C@@H](O)[C@H]2O)c(=O)[nH]1	2	6	-1.1
CCOc1ccc(CCNS(=O)(=O)c2c(C)nc3sccn3c2=O)cc1OCC	3	8	-0.8
COc1ccc(S(=O)(=O)Nc2ccc3c(c2)CC(=O)N([C@H](C)CO)C[C@@H](C)[C@@H](CN(C)C(=O)Nc2ccc(F)cc2)O3)cc1	-1	-8	1.4
C[C@H](CO)N1C[C@H](C)[C@H](CN(C)C(=O)Nc2ccc3c(c2)OCO3)Oc2ccc(NC(=O)CCC(F)(F)F)cc2C1=O	-3	4	-0.4
C=CCNc1cccc2c1S(=O)(=O)N[C@@H](C)CO2	13	11	2.1
COc1cc(Nc2cc(C)n(-c3cc(OC)cc(OC)c3)c(=O)c2)cc(OC)c1	4	-2	3.5
O=C(C[C@H]1C=C[C@H](NS(=O)(=O)c2ccc(F)cc2)[C@H](CO)O1)NCCc1ccncc1	2	9	-0.1
COC(=O)[C@]12C[C@H](CC(=O)NCCCN3CCCC3=O)C(=O)N(CCC3=CCCCC3)C1=C[C@H](COCc1ccccc1)O[C@@H]2C	8	7	8.5
CC1(Oc2cccc(C#N)c2)CCN(Cc2ccc(-c3ccccn3)cc2)C1 (stereo unspecified)	-2	-3	4.2
Cc1cccc(S(=O)(=O)N2CC[C@@H]3[C@H]2c2cc(-c4cccc(C#N)c4)ccc2N(C)[C@H]3CO)c1	1	10	-1.3
C[C@@H]1CCCCO[C@H](CN(C)C(=O)Nc2ccc(F)cc2)[C@H](C)CN([C@@H](C)CO)C(=O)c2cc(NS(=O)(=O)c3ccc(F)cc3)ccc2O1	-2	0	-0.8

# Limited to Ecoli rRNA inh RFP and Ecoli rRNA inh (4 entries from above):
structure | Ecoli rRNA inh RFP | Ecoli rRNA inh
CCOc1ccc(CCNS(=O)(=O)c2c(C)nc3sccn3c2=O)cc1OCC | -0.8 | 3
COc1ccc(S(=O)(=O)Nc2ccc3c(c2)CC(=O)N([C@H](C)CO)C[C@@H](C)[C@@H](CN(C)C(=O)Nc2ccc(F)cc2)O3)cc1 | 1.4 | -1
C[C@H](CO)N1C[C@H](C)[C@H](CN(C)C(=O)Nc2ccc3c(c2)OCO3)Oc2ccc(NC(=O)CCC(F)(F)F)cc2C1=O | -0.4 | -3
C=CCNc1cccc2c1S(=O)(=O)N[C@@H](C)CO2 | 2.1 | 13

# New compounds follow:
SMILES	Ecoli rRNA inh	Ecoli rRNA inh OD600	Ecoli rRNA inh RFP
O=C(C[C@@H]1C=C[C@H](NC(=O)C2CCC2)[C@H](CO)O1)Nc1nccs1	2	7	-1.5
Cc1ccc(S(=O)(=O)N(C)C[C@H]2Oc3ccc(NS(=O)(=O)c4ccc(Cl)cc4)cc3C(=O)N([C@@H](C)CO)C[C@@H]2C)cc1	-1	-7	0.8
O=C(C[C@@H]1CC[C@@H]2NC[C@@H](O)COC[C@H]2O1)NCc1ccc2c(c1)OCO2	-1	5	2.9
N#C[C@@H]1[C@@H](c2ccc(C#Cc3ccccc3F)cc2)[C@H](CO)N1C(=O)C1CCOCC1	-1	-14	2.4
CO[C@H]1CN(C)C(=O)c2ccc(NS(C)(=O)=O)cc2OC[C@@H](C)N(C(=O)C2CCC2)C[C@H]1C	-2	1	-0.8
C[C@@H]1CN([C@H](C)CO)C(=O)c2cc(NS(=O)(=O)c3cn(C)cn3)ccc2O[C@@H](C)CCCCO[C@@H]1CN(C)C(=O)Cc1ccccc1	-4	2	-2.3
Cc1ccc(CS(=O)Cc2ccc(C(=O)N3CCN(c4cccc(C)c4C)CC3)o2)cc1 (stereo unspecified)	-52	-63	-11
COc1ccc(CN(C)C[C@H]2OCCCC[C@H](C)Oc3ccc(NS(=O)(=O)c4ccc(Cl)cc4)cc3C(=O)N([C@H](C)CO)C[C@@H]2C)cc1	5	-18	18
Cc1ccc([C@H]2C[C@@H](O)[C@H](n3cc(COC(=O)c4ccccc4)nn3)CN2CC2CCCCC2)cc1	3	19	1.4
O=C(C1CCOCC1)N1CC(=O)N2[C@H](CO)[C@H](c3ccc(C#CCc4ccccc4)cc3)[C@H]2C1	2	-4	0.2
O=C(C[C@@H]1CC[C@H](NC(=O)CN2CCOCC2)[C@@H](CO)O1)NCCc1ccncc1	3	-5	-1.2
O=C(NCc1ccccc1)Nc1nnc([C@@H]2C[C@H](O)[C@@H](CO)O2)s1	4	3	1.9
CO[C@@H]1CN(C)C(=O)c2ccc(NC(=O)c3cnccn3)cc2OC[C@@H](C)N(CC2CC2)C[C@@H]1C	0	2	-1.4
C[C@H](CO)N1C[C@H](C)[C@@H](CN(C)C(=O)NC2CCCCC2)Oc2cc(-c3cccnc3)ccc2S1(=O)=O	2	-4	4.6
CO[C@@H]1CN(C)C(=O)c2ccc(NS(=O)(=O)c3ccc(C)cc3)cc2OC[C@@H](C)N(Cc2ccccn2)C[C@H]1C	-2	-5	1.9
COc1ccc(S(=O)(=O)N(C)C[C@@H]2OCCCC[C@H](C)Oc3ccc(NC(=O)NC(C)C)cc3C(=O)N([C@@H](C)CO)C[C@@H]2C)cc1	1	-5	1.0
CCCC(=O)Nc1ccc2c(c1)C(=O)N(C)C[C@@H](OC)[C@H](C)CN(Cc1ccc(-c3ccccn3)cc1)[C@@H](C)CO2	-5	-9	5.9
COc1ccccc1-c1ccc(C2[C@@H]3CN(C(=O)c4ccncc4)C[C@H]2N3)cc1 (stereo partly specified)	3&-1	15&-9	-2.6&-7.0
CNC[C@@H]1Oc2ccc(NC(=O)CCC(F)(F)F)cc2C(=O)N([C@@H](C)CO)C[C@@H]1C	0	1	-1.4
C[C@H]1CN([C@@H](C)CO)C(=O)c2cc(NC(=O)C3CC3)ccc2O[C@H]1CN(C)Cc1ccccc1	0	-1	1.7
CO[C@H]1CN(C)C(=O)c2ccc(NS(C)(=O)=O)cc2OC[C@@H](C)N(C(=O)CN(C)C)C[C@H]1C	1	7	1.1
CCOC(=O)C1=C(C(=O)OCC)C2N(Cc3ccc(C(F)(F)F)cc3)c3ccccc3[C@@]23C[C@@H](C(=O)OC)N(S(=O)(=O)c2ccccc2C)C3=N1 (stereo partly specified)	0	10	-0.7
O=C(C[C@@H]1CC[C@@H](NC(=O)c2ccccc2)[C@@H](CO)O1)NCCc1ccncc1	2	8	-1.3
CCCNC(=O)[C@H]1[C@H](CO)[C@H]2Cn3c(ccc(C4=CCCC4)c3=O)[C@@H]1N2Cc1ccncc1	1	-9	2.4
O=C(c1ccccn1)N1CC(=O)N2[C@H](CO)[C@@H](c3ccc(C#CCc4ccccc4)cc3)[C@@H]2C1	-3	-5	0.1

# Continued:
structure	Ecoli rRNA inh	Ecoli rRNA inh OD600	Ecoli rRNA inh RFP
CO[C@H]1CN(C)C(=O)c2cc(NC(=O)c3cccc(Oc4ccccc4)c3)ccc2OC[C@H](C)NC[C@@H]1C	-3	-3	9.6
C[C@@H]1CN([C@H](C)CO)C(=O)c2cc(C#Cc3ccccc3)cnc2O[C@@H]1CN(C)C(=O)c1ccccc1F	2	-9	-2.2
Cc1ccccc1-c1ccc([C@H]2[C@@H](CO)N3CCCCN(S(=O)(=O)c4ccc(F)cc4)C[C@@H]23)cc1	-4	8	-4.4
O=C(C[C@H]1C=C[C@H](NC(=O)Cc2ccccn2)[C@@H](CO)O1)NCCc1ccncc1	-2	-1	-1.3
O=C(C1CCOCC1)N1CC[C@H]2[C@H](CO)Nc3ccc(Br)cc3[C@H]21	5	13	3.7
COc1ccc(CNC(=O)C[C@@H]2C=C[C@@H](NC(=O)c3cccc(F)c3)[C@H](CO)O2)cc1	4	5	-2.4
Cc1cccc(S(=O)(=O)N(C)C[C@H]2OCc3ccccc3-c3ccccc3C(=O)N([C@H](C)CO)C[C@@H]2C)c1	-1	-11	5.0
C[C@H](CO)N1C[C@H](C)[C@H](CN(C)C(=O)Cc2ccccc2)OCCCC[C@H](C)Oc2ccc(NS(C)(=O)=O)cc2C1=O	-4	3	1.2
COc1cccc(C#Cc2ccc3c(c2)[C@@H]2[C@@H](CCN2S(=O)(=O)c2ccccc2)[C@@H](CO)N3)c1	2	-1	1.3
CO[C@H]1CN(C)C(=O)c2ccc(NC(=O)c3ccccc3F)cc2OC[C@@H](C)N(C)C[C@H]1C	0	6	-2.1
COCC#Cc1cnc2c(c1)C(=O)N([C@@H](C)CO)C[C@@H](C)[C@H](CN(C)C(=O)Nc1c(C)noc1C)O2	-5	-9	-1.1
CC(C)NC(=O)N(C)C[C@H]1OCCCC[C@H](C)Oc2ccc(NC(=O)Cc3ccccc3)cc2C(=O)N([C@@H](C)CO)C[C@H]1C	-2	-1	-0.9
COCC#Cc1ccc2c(c1)O[C@@H](CN(C)CC1CCCC1)[C@H](C)CN([C@H](C)CO)S2(=O)=O	0	9	-3.1
Cc1cc(C)c(S(=O)(=O)N2CCOC23CCN(S(C)(=O)=O)CC3)c(C)c1	6	5	2.7
CO[C@H]1CN(C)C(=O)c2ccc(NS(C)(=O)=O)cc2OC[C@H](C)N(C(=O)C2CCCC2)C[C@H]1C	-2	-9	0.6

# Part of the list above in order of count of non-hydrogen atoms, ascending.
structure	Ecoli rRNA inh	Ecoli rRNA inh OD600	Ecoli rRNA inh RFP
O=C(C[C@H]1C=C[C@H](NC(=O)Cc2ccccn2)[C@@H](CO)O1)NCCc1ccncc1	-2	-1	-1.3
O=C(c1ccccn1)N1CC(=O)N2[C@H](CO)[C@@H](c3ccc(C#CCc4ccccc4)cc3)[C@@H]2C1	-3	-5	0.1
C[C@@H]1CN([C@H](C)CO)C(=O)c2cc(NS(=O)(=O)c3cn(C)cn3)ccc2O[C@@H](C)CCCCO[C@@H]1CN(C)C(=O)Cc1ccccc1	-4	2	-2.3
C[C@@H]1CN([C@H](C)CO)C(=O)Cc2cc(NC(=O)CCCCCC(=O)Nc3ccccc3N)ccc2O[C@@H]1CN(C)Cc1ccc(Cl)c(Cl)c1	-7	-10	3.5

# More entries follow.
structure	Ecoli rRNA inh	Ecoli rRNA inh OD600	Ecoli rRNA inh RFP
COc1cccc(S(=O)(=O)Nc2ccc3c(c2)[C@@H]2C[C@H](CC(=O)NCc4cccc(F)c4)O[C@H](CO)[C@@H]2O3)c1	-9	-17	9.0
CC(C)NC(=O)N(C)C[C@@H]1Oc2c(NC(=O)c3nc4ccccc4s3)cccc2C(=O)N([C@H](C)CO)C[C@@H]1C	0	8	-0.1
O=C(C[C@H]1C[C@@H]2c3cc(NS(=O)(=O)c4ccc(F)cc4)ccc3O[C@@H]2[C@@H](CO)O1)NCc1ccccc1F	-6	-31	6.8
C[C@H]1CN([C@@H](C)CO)C(=O)Cc2cc(N(C)C)ccc2O[C@@H]1CN(C)CC1CC1	2	6	2.4
CCC(=O)N[C@@H]1CC[C@@H](CCn2cc(CN(C)C)nn2)O[C@@H]1CO	1	-2	-2.2
C[C@@H]1CCCCO[C@@H](CN(C)C(=O)c2ccncc2)[C@H](C)CN([C@H](C)CO)C(=O)c2cc(NC(=O)c3ccncc3)ccc2O1	2	3	-1.7
C[C@H](CO)N1C[C@H](C)[C@@H](CN(C)CC2CCCCC2)Oc2ccc(NC(=O)CCN3CCOCC3)cc2CC1=O	4	8	-0.5
CCc1cnc(N2[C@@H](C#N)[C@H](c3ccc(C#CCC4CCCC4)cc3)[C@@H]2CO)s1	13	-16	16
COC(=O)C[C@H]1CC[C@H]2[C@@H](COc3ccc(NC(=O)c4ccccc4)cc3C(=O)N2C)O1	3	1	3.5
CCC(=O)Nc1ccc2c(c1)OC[C@@H](C)N(C(=O)Cc1cccnc1)C[C@@H](C)[C@@H](OC)CN(C)C2=O	4	2	-1.6

# Bioassay records from PubChem.
